YjeE inh = qHTS Assay for Inhibitors of YjeE; AID 605, 2007; hit rate 0.05% among 71,000; tRNA threonylcarbamoyladenosine biosynthesis protein TsaE (Escherichia coli (strain …; Potency, µM; purified YjeE, fluorescence polarisation of a bound ADP probe; active = well fitted falling curve; inconclusive = weaker or top-dose-only fall, or a rising curve; inactive = flat or poorly fitted curve;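 note: top concentration of the series not given in the record; excess ADP was the control for the full effect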
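Fluorescence polarization of a BODIPY Texas Red–ADP probe (2 uM) bound to purified YjeE (10 uM) was read after 15 min room-temperature incubation with compounds. Loss of polarization marks inhibitors; ADP serves as titrated control.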
Bst PK mod = Pyruvate Kinase | partly purified Bacillus stearothermophilus pyruvate kinase, luminescence ATP production; ribose 5-phosphate activator present at AC10 | hit rate 1.2% among 51,000 | Potency, µM; in the data active means potency below about 11 µM; inconclusive means mostly about 12 µM to 25 µM; inactive means weaker than that;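 the screen sought inhibitors and activators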;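 note: potency is the fitted concentration of half-maximal effect; scaled between full activation by ribose 5 phosphate and full inhibition by luteolin; about four in five hits inhibit and the cells do not say which; series up to 57 µM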
* = called active by the depositor; i = inactive; ? = inconclusive; . = no result given. Only part of the results is shown (hit frequency here may not be typical).

Each structure is followed by: YjeE inh | Bst PK mod
O=C(Cn1cc(C(=O)c2ccccc2F)c2ccccc21)NCc1ccco1
→ i | >57
c1ccc2c(CCNC3=NCCC3)c[nH]c2c1
→ i | >57
C=CCn1c(O)c(C(C)=Nc2ccc(N(CC)CC)cc2)c(=O)[nH]c1=O
→ i | >57
O=c1c2ccccc2[se]n1-c1ccccc1
→ i | i
C=CCN1CCC2(C)c3cc(O)ccc3C[C@H]1[C@H]2C
→ i | .
C[N+]1([O-])[C@@H]2CC[C@H]1CC(OC(=O)[C@@H](CO)c1ccccc1)C2 (some centres not stated)
→ i | .
CC1(C)CSC(Nc2ccc(F)c(Cl)c2)=N1
→ i | >57
O=C(NC1(C(F)(F)F)Oc2ccc(Cl)cc2O1)N1CCC2(CC1)OCCO2 (configuration not stated)
→ i | >57
CC(Cl)(Cl)Cl
→ i | .
COc1ccc(S(=O)(=O)NC(CC(=O)N2CCC3(CC2)OCCO3)c2ccco2)cc1 (configuration not stated)
→ i | >57
CSC1=NP(=S)(SC)N2CCCC2=C1C#N (configuration not stated)
→ i | >57
O=C(c1csc2c1CCCCC2)N1CCC2(CC1)OCCO2
→ i | >57
CC(C)(C)OOC(C)(C)C
→ i | .
O=C(CCCn1c(=O)[nH]c2cc(Cl)ccc2c1=O)N1CCC2(CC1)OCCO2
→ i | >57
CN1CSC(=S)N(C)C1
→ i | .
CC(=NCCCN1CCCCC1)c1c(O)n(Cc2ccccc2)c(=O)[nH]c1=O
→ i | >57
NC[C@H](O)c1cc(O)c(O)cc1F
→ i | .
CN(CCC(=O)O)C1=Nc2ccc(Cl)cc2C(c2ccccc2)=[N+]([O-])C1
→ i | .
Cc1cc(Cl)ccc1O
→ i | .
CC(=NCCO)c1c(O)n(C2CCCCC2)c(=O)[nH]c1=O
→ i | .
C=CCn1c(O)c(C(C)=Nc2ccc(NC(C)=O)cc2)c(=O)[nH]c1=O
→ i | >57
ClCC1CO1 (configuration not stated)
→ i | .
CC(C)[C@]1(NC(=O)[C@H]2C=C3c4cccc5[nH]cc(c45)C[C@H]3N(C)C2)O[C@@]2(O)[C@H]3CCCN3C(=O)[C@H](Cc3ccccc3)N2C1=O
→ i | .
CC1(c2ccccc2)NCCN2C(=O)CSC21 (configuration not stated)
→ . | >26
COc1cc2c(cc1OC)-c1c(OC)c(OC)cc3c1C(C2)N(C)CC3 (configuration not stated)
→ i | .
O=C(Cc1ccccc1)OCCN1CCCCC1
→ i | >57
CCN1CCN(c2ncnc3ccc(Br)cc23)CC1
→ i | >57
C=CP(=O)(O)c1ccccc1
→ i | .
CC[C@@]12CCCN3CC[C@@]4(c5ccc(OC)c(O)c5N(C(C)=O)[C@H]4CC1)[C@H]32
→ i | .
O=C(CCl)c1ccc(Cl)cc1Cl
→ i | .

Compound profiles (already shown). Values in the order: YjeE inh	Bst PK mod
`O=C(c1csc2c1CCCCC2)N1CCC2(CC1)OCCO2` is listed as i	>57
`ClCC1CO1` (configuration not stated) is listed as i	.
`NC[C@H](O)c1cc(O)c(O)cc1F` is listed as i	.
`O=C(CCl)c1ccc(Cl)cc1Cl` is listed as i	.
`O=C(NC1(C(F)(F)F)Oc2ccc(Cl)cc2O1)N1CCC2(CC1)OCCO2` (configuration not stated) is listed as i	>57

Next structures:
Each structure is followed by: YjeE inh | Bst PK mod
c1cc(CN2CC3(CCNCC3)C2)ccn1
→ i | .
CN1[C@@H]2CC[C@H]1CC(O[C@@H](c1ccccc1)c1ccccc1N)C2 (some centres not stated)
→ i | .
S=C=Nc1cccc2ccccc12
→ i | .
C=CCn1c(O)c(C(C)=NCCCO)c(=O)[nH]c1=O
→ i | >57
CC(C)CN1CCC2(CC1)CCN(S(C)(=O)=O)CC2
→ i | .
N=C(N)n1cc(/C=N\N=C(N)N)cn1
→ i | .
C[C@H](N)Cc1c[nH]c2ccc(O)cc12
→ i | .
O=C(O)/C=C\c1ccc[c]([Sb](=[O])([OH])[OH])c1
→ i | .
CCCN(CCC)[C@@H]1CCc2cccc(O)c2C1
→ i | .
CCCOc1ccccc1C1SCC(=O)Nc2c1c(=O)[nH]n2C(C)CCC (configuration not stated)
→ i | >57
C=C[C@@H]1C[C@@]1(C)[C@@H](NP(=O)(c1ccccc1)c1ccccc1)c1ccccc1
→ i | .
CC1(C)N(O)C2CCCCC2N1O (configuration not stated)
→ i | >57
[O-][n+]1onc2c1CCC1N(O)CCC21O (configuration not stated)
→ i | >57
C[C@@]12CC(=O)[C@H]3[C@@H](CCC4=CC(=O)CC[C@]43C)[C@H]1CCC2=O
→ i | .
CCCCn1c(O)c(C(C)=NCCCN(CC)CC)c(=O)[nH]c1=O
→ i | >57
O=C(Nc1cccc(F)c1)N1CCC2(CC1)CCN(C(=O)Oc1ccccc1)CC2
→ i | .
O=C(c1ccco1)C12CN3CN(CN(C3)C1)C2
→ . | >26
O=C(CN1C(=O)CN=C(c2ccccc2)c2ccccc21)NCc1ccco1
→ i | >57
C[C@@H]1C[C@@H]([C@H](O)CC2CC(=O)NC(=O)C2)C(=O)[C@@H](C)C1
→ i | .
Cc1ccc2c(c1)CC1(CN2C)C(=O)NC(=O)N(c2ccc(C)c(C)c2)C1=O (configuration not stated)
→ i | >57
N[C@]1(C(=O)O)CC[C@@H](C(=O)O)C1
→ i | .
C[N+]1(C)CCc2cc3c(cc2[C@@H]1[C@@H]1OC(=O)c2c1ccc1c2OCO1)OCO3
→ i | .
CN1C(=O)C(C2c3ccccc3C(=O)N2Cc2ccccc2)C(=O)N(C)C1=O (configuration not stated)
→ i | >57
CCNC(=O)[C@@H]1O[C@@H](n2cnc3c(N)ncnc32)[C@H](O)[C@H]1O
→ i | .
COc1cccc(-n2nc(C(=O)N3CCC4(CC3)OCCO4)c3ccccc3c2=O)c1
→ i | >57
CN=C(SCc1cc2c(cc1Cl)OCO2)c1c(O)n(C)c(=O)n(C)c1=O
→ i | >57
Nc1c(C(=O)Nc2ccc([As](=O)(O)O)cc2)cnc2nnnn12
→ i | .
Cn1c(O)c(C(=O)c2ccccc2Cl)c(=O)n(C)c1=O
→ . | >26
O=c1[nH]c(=O)n(Cc2ccc(F)cc2)c(O)c1C=NCc1cccnc1
→ i | >57
CN1CCc2cc3c(cc2[C@@H]1O)OCO3
→ i | .

Later entries
Each structure is followed by: YjeE inh | Bst PK mod
O=C(Nc1cccc(Cl)c1)c1c(O)c2c(n(Cc3ccco3)c1=O)CCCC2
→ i | >57
CC12CC(c3ccccc3O1)C(C(=O)OCc1ccccc1)C(=O)N2 (configuration not stated)
→ i | >57
C[C@H](CN(C)C)C(C#N)(c1ccccc1)c1ccccc1
→ i | .
CN(C)CCCc1c[nH]c2ccccc12
→ i | .
O=c1cccc2n1CC1CC2CN(Cc2c(F)cccc2Cl)C1 (configuration not stated)
→ i | .
Cc1ccc(CN2CCN(CC(=O)N3CCC4(CC3)OCCO4)C2=O)cc1
→ i | >57
Cc1cc(C)n(CCOC(=O)C2C(C=C(Cl)Cl)C2(C)C)n1 (configuration not stated)
→ i | >57
N[C@H](Cn1ccc(=O)[nH]c1=O)C(=O)O
→ i | .
CCC(=Nc1ccc(OC)cc1OC)c1c(O)[nH]c(=O)[nH]c1=O
→ i | >57
O=C(c1ccccc1)c1cn(CC(=O)N2CCCC2)c2ccccc12
→ i | .
O=C(COc1ccccc1)N1CCN(C2CCCC2)CC1
→ i | >57
CCCCCCN=C(C)c1c(O)n(CCCC)c(=O)[nH]c1=O
→ i | >57
CCC(=NCCCN(CC)CC)c1c(O)n(C2CCCCC2)c(=O)[nH]c1=O
→ i | ?
C[C@H](N)Cc1c[nH]c2ccc(OCc3cccs3)cc12
→ i | .
C[C@@H]1O[C@H]1P(=O)(O)O
→ i | .
C=CCn1c(O)c(C(C)=NCc2cccnc2)c(=O)[nH]c1=O
→ i | >57
C=CCN1CC[C@@]23c4c5ccc(O)c4O[C@H]2/C(=N\N=C2/CC[C@@]4(O)[C@H]6Cc7ccc(O)c8c7[C@@]4(CCN6CC=C)[C@@H]2O8)CC[C@]3(O)[C@@H]1C5
→ i | .
Nc1ccc(Oc2ccc(N)cc2)cc1
→ i | .
CN1CCN(c2ccc(NC(=O)C(C)(C)C)cc2)CC1
→ i | >57
COP(=S)(OC)SCN1C(=O)c2ccccc2C1=O
→ i | .
COc1ccc2nc(NC(=O)CCc3nc(C4=CCN(C)CC4)no3)sc2c1
→ i | .
O=c1[nH]c(=O)n(C2CCCCCC2)c(O)c1C=NC1CCN(Cc2ccccc2)CC1
→ i | ?
COc1ccc(OCC(=O)N2CCN(CC3CC4C=CC3C4)CC2)cc1 (configuration not stated)
→ i | >57
COc1ccccc1N1CCN(Cc2cccc(OC)c2O)CC1
→ i | >57
O=P(C(c1ccc2c(c1)OCO2)N1CCOCC1)(N1CCOCC1)N1CCOCC1 (configuration not stated)
→ i | >57
CCOC(=O)C1CCN(C(C)C(=O)c2c(C)[nH]c3cc(C)ccc23)CC1 (configuration not stated)
→ i | .
C=C(Cl)CCl
→ i | .
CC1(C)C(C(=O)NCc2ccco2)C1(C)C
→ i | >57
O=C(CCC(=O)N1CCC2(CC1)OCCO2)Nc1nnc(C(F)(F)F)s1
→ i | >57
NC(=O)C1(N2CCCCC2)CCN(Cc2ccccc2)CC1
→ i | >57

The list continues.
Each structure is followed by: YjeE inh | Bst PK mod
C[C@]12CCC(=O)C=C1CC[C@@H]1[C@@H]2CC[C@]2(C)C(=O)CC[C@@H]12
→ i | >26
NC[C@H](CS(=O)(=O)O)c1ccc(Cl)cc1
→ i | .
Cc1nonc1-c1nc(-c2nonc2N)n[nH]1
→ i | >57
CCCCOC(=O)C1=C(N)OC2=C(C(=O)CCC2)[C@]12C(=O)N(C)c1ccccc12
→ i | >57
CNCCc1ccc(O)c(O)c1
→ i | .
Cc1cc(OCc2nn[nH]n2)c2c3c(c(=O)oc2c1)CCCC3
→ i | .
C[C@]12N[C@@H](Cc3ccccc31)c1ccccc12
→ i | .
CC(=NCCO)c1c(O)n(C)c(=O)n(C)c1=O
→ . | >26
N=c1sc2c(n1Cc1ccccc1)CCCC2
→ i | >57
O=C1CN=C(c2ccccc2)c2oc3ccc(Br)cc3c2N1
→ i | >57
CCCCCCCCCCCCCC(=O)O[C@H]1[C@@H](C)[C@@]2(O)[C@@H](C=C(CO)C[C@]3(O)C(=O)C(C)=C[C@@H]23)C2C(C)(C)[C@]21OC(C)=O (some centres not stated)
→ i | .
O=C(O)c1cc(N=Nc2ccc([As](=O)(O)O)cc2)ccc1O
→ i | .
CCOC(=O)C(C)Oc1cc(C)cc2oc(=O)c3c(c12)CCCC3 (configuration not stated)
→ i | >57
O=[N+]([O-])c1ccc(O[C@H]2O[C@@H](CO)[C@@H](O)[C@@H](O)[C@@H]2F)c([N+](=O)[O-])c1
→ i | .
Clc1ccc(C(c2ccc(Cl)cc2)C(Cl)(Cl)Cl)cc1
→ i | .
C[C@@H](CO)NC(=O)[C@H]1C=C2c3cccc4[nH]cc(c34)C[C@H]2N(C)C1
→ i | .
C=C(C)CSc1nnc([C@@H](N)Cc2c[nH]c3ccccc23)o1
→ i | >57
Cl/C=C/Cl
→ i | .
CCCCCCC(N)CC(=O)O (configuration not stated)
→ i | .
O=C(Nc1ccccc1)N1CCCC2(CCN(C(=O)Oc3ccccc3)CC2)C1
→ i | .
c1ccc2c(c1)CNc1ccccc1O2
→ i | .
O=C(N1CCOCC1)C1(c2ccccc2)CCNCC1
→ i | .
CC(C)NC(=O)N1CCC2(CCNCC2)CC1
→ i | .
CCOC(=O)c1ccc(N2C(=O)CC(N3CCC(C#N)(c4ccccc4)CC3)C2=O)cc1 (configuration not stated)
→ i | >57
CN(C)P(=O)(C(Cl)=C(N1CCCCC1)N1CCCCC1)N(C)C
→ i | >57
CCN(CC)CCOC(=O)c1cc2cc(COC)ccc2o1
→ i | >57
CCCCCn1c(=O)c(C(=O)NCc2ccccn2)c(O)c2ccccc21
→ i | .
COC(=O)[C@@H]1c2cc3c(c(O)c2[C@@H](O)C[C@]1(C)O)C(=O)c1c(O)cc2c(c1C3=O)O[C@H]1O[C@@]2(C)[C@@H](O)[C@H](N(C)C)[C@H]1O
→ i | .
O=c1[nH]c2ccccc2c(=O)n1-c1cccc(Cl)c1
→ . | >26
C[C@]12N[C@H](Cc3ccccc31)c1ccccc12
→ i | .

Some of these compounds in order of length of the SMILES, ascending:
Each structure is followed by: YjeE inh | Bst PK mod
Cc1nonc1-c1nc(-c2nonc2N)n[nH]1
→ i | >57
Clc1ccc(C(c2ccc(Cl)cc2)C(Cl)(Cl)Cl)cc1
→ i | .
CCCCCCCCCCCCCC(=O)O[C@H]1[C@@H](C)[C@@]2(O)[C@@H](C=C(CO)C[C@]3(O)C(=O)C(C)=C[C@@H]23)C2C(C)(C)[C@]21OC(C)=O (some centres not stated)
→ i | .

Additional compounds follow:
Each structure is followed by: YjeE inh | Bst PK mod
C/C(O)=C(/C#N)C(=O)Nc1cc(Br)ccc1Br
→ i | .
O=c1[nH]c(=O)n(Cc2ccc(F)cc2)c(O)c1C=NCC1CCCO1 (configuration not stated)
→ i | >57
CCCCC(=O)Cl
→ i | .
Cc1ccc(-c2nc(CS(=O)CC(=O)N3CCC4(CC3)OCCO4)c(C)o2)cc1 (configuration not stated)
→ i | >57
O=C1CCCN1CC#CCN1CCCC1
→ i | .
Cc1cc(C)cc(C(=O)OC2C[C@H]3CC[C@@H](C2)N3C)c1 (some centres not stated)
→ i | .
Cc1ccc(Cl)cc1-n1c(O)c(C=NCCCN2CCOCC2)c(=O)[nH]c1=O
→ i | >57
COc1cc(/C=N/n2cnnc2)ccc1OC(=O)N(C)C
→ i | >57
O=C(CCN1CCOCC1)NCC(=O)Nc1ccc(Br)cc1C(=O)c1ccccc1
→ i | >57
COc1ccc2c(c1)CC1(CN2C)C(=O)NC(=O)N(CCc2ccccc2)C1=O (configuration not stated)
→ i | >57

Assay outcomes (PubChem BioAssay)
